High-throughput results deposited in PubChem by National Center for Advancing Translational Sciences (NCATS).
SARS PLP yeast = qHTS of Yeast-based Assay for SARS-CoV PLP; S. cerevisiae expressing SARS-CoV PLpro, growth rescue; control for the full effect not named in the record; Potency, µM (highest dose often 32.9 µM), inactives show at the top dose activity, positive = growth rescue; hit rate 0.19% among 330,000; AID 485353, 2010; note: 0% is about no effect; nearly all actives have a fitted effect of over 55% in size; growth read by luminescence after 48 h
LASV entry inh = qHTS for Inhibitors of binding or entry into cells for Lassa Virus; hit rate 1.2% among 300,000; Lassa virus pseudotype entry inhibition, cell reporter; control for the full effect not named in the record; Potency, µM (doses to about 37.9 µM), without a hit: top-dose activity change, negative = inhibition, actives largely listed as inhibitors; AID 540256, 2011; active means well fitted inhibition curve with a large enough effect; inconclusive means small, poorly fitted or top-dose-only effect, or effect the other way; inactive means flat fitted curve, though single readings scatter; tested in HEK293 cells; note: % is set by controls: 0 for no effect and ±100 for the full control effect; nearly all actives have a fitted effect of over 50% in size; luciferase read-out
MARV entry inh = qHTS for inhibitors of binding or entry into cells for Marburg Virus. Potency, µM (doses to about 37.8 µM), for inactives: at the highest dose activity change, negative = inhibition, usual class: inhibitors. AID 540276, 2011. Marburg virus pseudotyped entry inhibition, cell reporter; control for the full effect not named in the record; about a third of the inactives were read at about 46 µM. hit rate 1.8% among 300,000; active = well fitted inhibition curve with a large enough effect; inconclusive = small, poorly fitted or top-dose-only effect, or effect the other way; inactive = flat fitted curve, though single readings scatter; tested in HEK293 cells; about a fifth of its hits are not listed in these tables; note: % is set by controls: 0 for no effect and ±100 for the full control effect; luciferase read-out
Cruzain Triton = qHTS Assay for Promiscuous and Specific Inhibitors of Cruzain (with detergent). Cruzipain (Trypanosoma cruzi), P25779. purified cruzain, Z-FR-AMC fluorescence, 0.01% Triton. Potency, µM, for inactives: max response, negative = inhibition, usual class: inhibitors. hit rate 0.43% among 200,000. AID 1478, 2009; active = well fitted curve in the direction sought with a large enough effect; inconclusive = small, poorly fitted or top-dose-only effect, or another doubt; inactive = no such curve, though single readings can be large; an effect the other way counts as inactive or inconclusive;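 note: plate controls were neutral wells for no effect and buffer without enzyme for full effect; nearly all actives have a fitted effect of over 40% in size; top concentration of the series not given in the record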
Target sequence (P25779 123-467 limits assumed): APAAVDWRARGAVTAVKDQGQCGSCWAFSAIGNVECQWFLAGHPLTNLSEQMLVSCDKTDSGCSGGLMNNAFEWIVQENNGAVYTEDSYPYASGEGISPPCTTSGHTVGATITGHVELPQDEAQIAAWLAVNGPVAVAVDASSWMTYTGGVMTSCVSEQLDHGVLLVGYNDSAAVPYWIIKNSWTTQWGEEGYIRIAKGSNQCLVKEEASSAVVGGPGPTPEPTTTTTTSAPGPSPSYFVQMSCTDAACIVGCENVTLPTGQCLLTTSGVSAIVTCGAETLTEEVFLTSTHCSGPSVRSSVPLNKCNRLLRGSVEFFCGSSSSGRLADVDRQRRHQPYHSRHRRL
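Detergent-containing arm of a paired screen for aggregation-based inhibition: 0.01% Triton X-100 present. Cruzain at 1.5 nM cleaved 2 uM Z-FR-AMC at pH 5.5 with 5 mM DTT; AMC fluorescence gain over 60 s measured activity.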
NS1 inh = qHTS Assay for Inhibitors of Influenza NS1 Protein Function; AID 2326, 2010; Potency, µM (titrated, usually from 46.1 µM), without a hit: top-dose activity, positive = more growth; hit rate 0.4% among 270,000; S. cerevisiae slowed by influenza A NS1, growth recovery by OD600; note: actives are rising curves; nearly all actives have a fitted effect of over 50% in size
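OD600 was taken as the measure of yeast growth restored by compound in an NS1-expressing S. cerevisiae strain. Cells had been washed out of glucose medium and diluted 1:100 into galactose -URA medium, pH 6.0.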
StopGo reporter = High Throughput Screening for Foot and Mouth Disease Virus Antivirals. human cells with a luciferase reporter of 2A StopGo recoding; control for the full effect not named in the record. Potency, µM (series often up to 57.9 µM), for the others: at the top dose signal change, negative = less light. hit rate 1.2% among 410,000. AID 1159524, 2015; active = well fitted falling curve with a large enough effect; inconclusive = small, poorly fitted or top-dose-only effect; inactive = no such curve, though single readings can be large or run the other way; tested in HEK293T cells; note: % is set by controls: 0 for no effect and ±100 for the full control effect; nearly all actives have a fitted effect of over 45% in size; luciferase light after 4 h
RE007 growth inh = qHTS Assay for Inhibitors of the HIV-1 protein Vpr. S. pombe RE007 Vpr strain, BacTiter-Glo ATP luminescence, 24 h; control for the full effect not named in the record. Potency, µM (top dose mostly 92.2 µM), for the others: top-dose activity change, negative = less growth. hit rate 0.21% among 360,000; active = well fitted falling curve with a large enough effect; inconclusive = small, poorly fitted or top-dose-only effect; inactive = no such curve, though single readings can be large or run the other way;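 note: % is set by controls: 0 for no effect and ±100 for the full control effect; nearly all actives have a fitted effect of over 50% in size; the assay follows cell death caused by Vpr and the record does not say whether a fall means rescue or toxicity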
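Fission yeast strain RE007, carrying one chromosomally integrated HIV-1 vpr copy, was seeded at OD 0.01 in PMG+AL medium with 23 nL pinned compound. After 24 h at 30 °C and 99% humidity, viability was read by BacTiter-Glo luminescence.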
Cruzain noTriton = qHTS Assay for Promiscuous and Specific Inhibitors of Cruzain (without detergent); Cruzipain (Trypanosoma cruzi), P25779; purified cruzain, Z-FR-AMC fluorescence, no detergent; Potency, µM, inactives show max response, negative = inhibition, usual class: inhibitors; hit rate 2.3% among 200,000; AID 1476, 2009; active = well fitted curve in the direction sought with a large enough effect; inconclusive = small, poorly fitted or top-dose-only effect, or another doubt; inactive = no such curve, though single readings can be large; an effect the other way counts as inactive or inconclusive;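 note: plate controls were enzyme without inhibitor for no effect and buffer without enzyme for full effect; nearly all actives have a fitted effect of over 40% in size; top concentration of the series not given in the record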
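Detergent-free condition (0.00005% Triton X-100) in acetate buffer pH 5.5 with DTT. 1.5 nM enzyme and compound were pre-mixed 15 min, then 2 uM Z-FR-AMC substrate added; reaction progress from fluorescence change between first and third reads (60 s).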
* marks the source's active call; other numbers are inactive results; ? = inconclusive; / = not tested or not shown; & = joins results of further samples; [ ] = another dose, or the depositor's remark. Unless noted, calls come from the whole dose curve; as a rule, active means well fitted rising curve with a large enough effect; inconclusive means small, poorly fitted or top-dose-only effect; inactive means no such curve, though single readings can be large or run the other way. Potency is the fitted concentration of half-maximal effect. Compounds as they come. About 4.7% of those tested had a hit in this group.

SMILES | SARS PLP yeast | LASV entry inh | MARV entry inh | Cruzain Triton | NS1 inh | StopGo reporter | RE007 growth inh | Cruzain noTriton
O=C(N/N=C/c1ccccc1F)c1ccccc1OCc1ccccc1 | 1% | -1%[46.1 µM] | -6%[46.1 µM] | / | -6% | 7% | -7% | /
COc1ccc(-n2nc(C(=O)NCC(=O)NC3CCCCC3)c3ccccc3c2=O)cc1 | 1% | / | ? | / | 6% | -13% | 0% | /
CCOc1ccc2nnc(-c3ccc(Br)cc3)n2n1 | -15% | 13% | 2% | 0.9% | -6% | -26% | -1% | 16%
O=C(NCc1ccccc1Cl)c1ccc(Cn2c(=O)c3cccn3c3cccnc32)cc1 | / | -13%[46.1 µM] | / | 4.4% | / | -2% | / | 11%
CCOC(=O)N1CCN(c2nc(C(F)(F)F)nc3c(C)cc(C)cc23)CC1 | / | ? | ? | -8.3% | -83% | 0% | 20% | 27%
COCCCNc1ncnc2c1nnn2C | / | -1%[46.1 µM] | / | -3.4% | / | -15% | / | 3%
CCc1ccccc1-n1c(SCC(=O)c2c(N)n(C3CC3)c(=O)[nH]c2=O)nnc1N1CCOCC1 | 1% | -2% | 10% | / | / | -15% | -1% | /
O=C(Cn1ccc(C(F)(F)F)n1)Nc1cccc(S(=O)(=O)N2CCCCC2)c1 | 1% | 1% | -20%[46.1 µM] | / | / | -13% | -15% | /
COc1cccc(COC(=O)c2ccc(-c3nnn(Cc4cccc(OC)c4)n3)cc2)c1 | / | -1%[46.1 µM] | 16%[46.1 µM] | 0.9% | / | ? | / | -16%
CN(C)CCCN1CC(C(=O)O)CC1=O (stereo not given) | 2% | -11% | 9% | 2.1% | 4% | / | -1% | -5%
Cc1ccc(C2=NN(C(=O)c3cccs3)C(c3ccccc3O)C2)cc1 (stereo not given) | 0% | -7%[46.1 µM] | ? | / | 4% | 13% | 4% | /
Cc1ccc(/C=N/NC(=O)c2nnn(-c3nonc3N)c2CSc2ccccc2)cc1 | 2% | / | / | / | -3% | 23% | 13% | /
FC(F)(F)c1ccccc1CN1CCCC(N2CCN(c3ccccc3)CC2)C1 (stereo not given) | 3% | / | / | / | 9% | -13% | -15% | /
CCCN1C(=O)C2(C(C(=O)c3ccc(C)o3)=C(O)C(=O)N2CCCOC)c2ccccc21 (stereo not given) | -2% | 10% | -34% | / | 7% | 0% | -9% | /
CC(C)N1CCN(C2CSCCSC2)CC1CCO (stereo not given) | 1% | 6% | 2% | / | 5% | 12% | -14% | /
COc1cccc(NC(=O)Cc2csc(NC(=O)Nc3ccccc3OC)n2)c1 | 10% | 1% | -17% | / | / | -23% | 32% | /
Cc1cccn2c(=O)nc(SCC(=O)N3CCN(c4ccccc4)CC3)nc12 | / | -12% | 12% | / | / | -15% | 0% | /
CCOC(=O)c1cocc1C(=O)O | / | 12% | ? | / | / | -20% | 15% | /
CNC(=O)CN(c1cccc2ccccc12)S(C)(=O)=O | 1% | -4% | 0% | 4.6% | 5% | -21% | 8% | 2%
CCN(CC)S(=O)(=O)c1ccc(N2CCCC2)c(NS(=O)(=O)c2ccc([N+](=O)[O-])cc2)c1 | -6% | -3% | -1% | -4.5% | -2% | 12% | 21% | -12%
COc1cc([C@@H]2[C@H]3CNCC=C3C(C#N)=C(N)C2(C#N)C#N)ccc1OC(C)C | 1% | -4% | ? | -3.3% | 13% | -22% | 5% | -2%
Oc1cc(CNCc2ccccc2)c(O)cc1CNCc1ccccc1 | / | 0%[46.1 µM] | -9%[46.1 µM] | / | / | -1% | -2% | /
CCCCc1cc(=O)oc2cc(OC(C)C(=O)NCc3ccccn3)c(Cl)cc12 (stereo not given) | -1% | / | / | / | 11% | -21% | 8% | /
O=C(NNC(=S)NC1CCCCC1)c1ccccc1Cl | 0% | 11%[46.1 µM] | -5%[46.1 µM] | / | -7% | 46%[activator] | 2% | /
COc1ccc(CCN2C(=O)c3[nH]nc(-c4ccccc4O)c3C2c2ccc(C)cc2)cc1OC (stereo not given) | 1% | 10µM* | ? | -0.7% | ? | ? | 30% | -8%
Cc1cccc(NC(=O)CCS(=O)(=O)c2ccc3c(c2)oc(=O)n3C)c1 | -1% | 10%[46.1 µM] | 2%[46.1 µM] | / | -3% | -15% | 9% | /
Cn1c(=O)oc2cc(S(=O)(=O)NCCN3CCN(c4ccccc4)CC3)ccc21 | 4% | / | 5% | 4.8% | -5% | -11% | 1% | -2%
CCc1c(C(=O)N/N=C/c2cccs2)nnn1-c1nonc1N | -1% | -5% | 8%[46.1 µM] | / | -12% | 44%[activator] | -8% | /
CCSc1nc(CC)c2c(c1C#N)CCCC2 | -5% | -2% | ? | -9.5% | -14% | -26% | -26% | -7%
Cn1c(=O)[nH]c(=O)c2c1nc(N1CCCC1)n2CCCSc1nc2ccccc2o1 | 4% | ? | ? | 1.9% | -21% | ? | -1% | -6%
COc1ccccc1-c1c(C)nn2c(C)cc(C)nc12 | -5% | / | / | 3.3% | -5% | -16% | 3% | -3%
CCn1c(SCC(=O)Nc2ccc(OC)c(OC)c2)nnc1-c1cccs1 | 0% | -5% | ? | 3.9% | -1% | -19% | 0% | -3%
Cc1ccc(N2CCCn3c2cc(C)c(C#N)c3=O)cc1C | 1% | ? | ? | -6.9% | 4% | 5% | -7% | -4%
COc1ccc(NC(=O)CN(C)C(=O)C(NC(=O)c2ccco2)C(C)C)cc1 (stereo not given) | -1% | 4% | 6% | / | / | -24% | 3% | /
Cc1cs/c(=N\N=C\c2ccc(O)cc2)n1Cc1ccco1 | -28% | ? | 0% | -14% | 23% | 22% | -27% | -14%
O=C(c1cnc2ccc(Cl)cc2c1Cl)N1CCOCC1 | 1% | / | / | / | 1% | 2% | 2% | /
O=C(Nc1ncc(Cc2cc(Cl)ccc2Cl)s1)c1ccc([N+](=O)[O-])cc1 | 1% | ? | ? | 4.4% | ? | ? | 16% | 13µM*
CC(NCc1ccc(OCc2ccc(Cl)cc2)cc1)C(O)c1ccccc1 (stereo not given) | 0% | ? | 13µM* | / | / | -25% | 7% | /
COc1ccc(S(=O)(=O)N2CCN(Cc3c[nH]c4ccccc34)CC2)cc1 | -2% | 11% | 6%[46.1 µM] | 4.2% | 2% | -18% | -2% | -3%
Nc1c2c(nc3ccn(-c4ccccc4)c(=O)c13)CCCCC2 | 11% | ? | -6% | 1.0% | -3% | 15% | 4% | 1%
O=C(CC(CC(=O)c1ccccc1)C(=O)O)c1ccccc1 | 1% | 7% | 7% | -4.8% | 1% | 33%[activator] | 10% | 1%
COC(=O)c1cc(NC(=O)Cc2ccccc2[N+](=O)[O-])cc(C(=O)OC)c1 | 4% | -24% | 5% | -3.6% | 5% | 10% | 2% | -17%
CC(C)N1CCN(Cc2ccc(OCc3ccccc3)cc2)CC1CCO (stereo not given) | 0% | / | / | / | -3% | -13% | 11% | /
CCOC(=O)CC1(NC(=O)C2CCC(=O)N(CCc3ccccc3)C2)CCCCC1 (stereo not given) | -1% | / | / | / | 10% | 28% | -11% | /
O=C(c1ccc(COc2ccccc2Cl)o1)N1CCOCC1 | 0% | -1%[46.1 µM] | ? | / | -20% | 6% | 1% | /
Cc1ccc(C(=O)CSc2ncnc3sc4c(c23)CCCC4)cc1 | -8% | -23% | -22% | 1.1% | 29% | / | -3% | -20%
C=CCNC(=O)/C(=C/c1cccc([N+](=O)[O-])c1)NC(=O)c1ccco1 | 0% | -3% | -11%[46.1 µM] | / | -3% | 16% | 11% | /
Cc1cc(Cl)ccc1NS(=O)(=O)c1c(C(=O)N2CCCCCC2)c(C)n(C)c1C | / | -24%[46.1 µM] | / | -2.7% | / | 38%[activator] | / | ?
CCOC(=O)c1c(-c2ccc(C)cc2)csc1NC(=O)c1ccc(N2C(=O)CCC2=O)cc1 | -3% | -1% | 23% | -16% | -5% | ? | 14% | 20%
N#C/C(=C\c1ccc2c(c1)OCCO2)C(=O)Nc1ccc(C(=O)O)cc1 | -1% | / | / | / | 5% | 26% | 14% | /
CCn1c(/C=C/c2c(C)n(CC)c3ccccc23)nc2ccccc2c1=O | 7% | 11% | 23% | -8.8% | 5% | 1% | 12% | 0%
COc1ccccc1-c1n[nH]c(=S)n1-c1ccccc1 | 13% | 1% | -16%[46.1 µM] | 1.4% | -4% | 30% | 0% | -6%
Cc1ccc(C(=O)NC(=S)NCc2cccnc2)cc1 | 0% | / | / | / | 0% | 25% | -4% | /
O=c1c2cc3c(nc2[nH]c(=S)n1-c1ccccc1)CCCC3 | 1% | -4%[46.1 µM] | ? | / | 3% | -12% | 8% | /
Cc1ccc(NC(=O)CCn2cccn2)cc1Cl | / | ? | / | -1.8% | / | 12% | / | 12%
CN1C(C(=O)Nc2ccc(OC(F)(F)F)cc2)=CC(c2ccc3c(c2)OCO3)=NS1(=O)=O | 0% | 0%&17%[46.1 µM] | -26%&-5%[46.1 µM] | -6.0% | 2% | -6%&-7% | -17% | 2%
CCC(C)(C)n1nnnc1C(c1cc2cc(C)cc(C)c2[nH]c1=O)N1CCN(C(=O)c2ccco2)CC1 (stereo not given) | -4% | -24% | -19% | -9.3% | 19% | / | 14% | ?
COc1cccc(-c2cc(C(=O)NCc3ccccc3)no2)c1 | / | ? | 28%[46.1 µM] | -2.3% | / | 49%[activator] | / | -12%
